VDR inhibitor = vitamin D3 receptor (human) inhibition. P11473. VDR-SRC2-3 peptide fluorescence polarization, 2 h. Potency, µM, without a hit: max response, negative = inhibition, hits mostly inhibitors. 0.93% of 400,000 active. AID 504847; active = well fitted inhibition curve with a large enough effect; inconclusive = small, poorly fitted or top-dose-only effect, or another doubt; inactive = no such curve, though single readings can be large or run the other way; note: series mostly up to about 120 µM
Target sequence (P11473 whole entry, looked up): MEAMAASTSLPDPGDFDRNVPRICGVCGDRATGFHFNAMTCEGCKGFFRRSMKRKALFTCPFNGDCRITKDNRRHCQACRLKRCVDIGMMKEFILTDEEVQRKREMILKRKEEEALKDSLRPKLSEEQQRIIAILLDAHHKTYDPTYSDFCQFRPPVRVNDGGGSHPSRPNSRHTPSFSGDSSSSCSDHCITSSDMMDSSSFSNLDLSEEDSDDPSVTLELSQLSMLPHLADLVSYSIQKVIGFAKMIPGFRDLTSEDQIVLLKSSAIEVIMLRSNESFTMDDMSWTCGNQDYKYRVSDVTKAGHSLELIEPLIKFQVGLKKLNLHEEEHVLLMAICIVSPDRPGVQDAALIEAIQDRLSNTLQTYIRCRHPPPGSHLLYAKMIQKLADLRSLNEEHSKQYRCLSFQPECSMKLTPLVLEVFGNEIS
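Signal is fluorescence polarization, reporting how far test compounds block the interaction of VDR with the SRC2-3 coregulator peptide after a 2 h room-temperature incubation.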
An asterisk follows results filed as active; ? = inconclusive; & = joins results of further samples. % is set by controls: 0 for no effect and ±100 for the full control effect; potency is the fitted concentration of half-maximal effect.

VDR inhibitor | SMILES
-4.2% | CCN(CC)C(=O)c1sc(NC(=O)C2c3ccccc3Oc3ccccc32)c(C(=O)OC(C)C)c1C
16.0% | COCCCNC(=O)c1ccccc1NS(C)(=O)=O
-9.2% | CC[n+]1c(S(=O)(=O)[O-])ccc2ccc(C)cc21
-3.0% | Cc1ccccc1OCC(=O)Nc1ccc2oc(=O)ccc2c1
? | COc1ccc(-c2cc3c(=O)n(CC(=O)Nc4ccc(C(C)=O)cc4)ncn3n2)cc1
4.0% | O=C(Nc1cccc(C(F)(F)F)c1)c1ccc(N2CCNCC2)c([N+](=O)[O-])c1
-2.7% | CC(C)[C@H]1CN=C2N(CCNC(=O)CCC3CCCCC3)[C@H](Cc3ccc(O)cc3)CN21
-1.6% | CC1CCN(C(=O)c2ccc(NC3=C(Cl)C(=O)N(Cc4ccccc4)C3=O)cc2)CC1
-3.2% | COc1ccc(C(=O)CSc2nnc(COc3ccc(C#N)cc3)n2-c2ccccc2)cc1
-7.5% | COc1ccc(NC(=O)C2CCN(S(=O)(=O)c3ccc(Br)s3)CC2)cc1OC
? | CC1CCC2(CC1)NC(=O)N(NC(=O)c1cc3ccccc3o1)C2=O (configuration not stated)
-12.4% | CCOC(=O)c1c(C)[nH]c(C)c1C(=O)CSc1nc2ccccc2n1CCC#N
5.8% | O=C(COC(=O)c1ccc2c(c1Cl)C(=O)c1ccccc1C2=O)NC1CC1
-5.5% | COCCCn1c(=O)/c(=C\c2ccccc2OC(F)F)s/c1=C(/C#N)C(=O)NCCOC
11.6% | CC(Nc1oc(-c2ccccc2)nc1-c1ccc(C(F)(F)F)cc1)c1ccccc1 (configuration not stated)
79.4µM* | COC(=O)[C@@]1(Cc2ccc(OC)cc2)[C@@H]2C(=CC(=O)[C@H]2CC(=O)C(=O)N(C)C)CN1C(=O)c1ccccc1
-11.3% | S=c1[nH]nc(-c2cc(-c3ccccc3)n[nH]2)n1/N=C/c1cccc(Cl)c1
5.1% | COCCNC(=O)C1CCCN(c2nn3c(=O)cc(C)nc3s2)C1 (configuration not stated)
-21.9% | NNC(=O)CSc1nc(-c2ccccc2)nc2c1CCCC2
-17.8% | CCOC(=O)c1c(NC(=O)CSc2nnnn2-c2ccccc2)sc2c1CC(C)(C)NC2(C)C
1.9% | CCn1c(SCCC(=O)O)nnc1-c1cccnc1
-6.3% | Cc1ccc(-c2c(C)c(-c3ccc(F)cc3)nc(N)c2C#N)o1
1.1% | CCn1c(-c2cccc(Cl)c2)n[nH]c1=S
-24.2% | O=C(/C=C\c1ccco1)Nc1nc(-c2ccc3ccccc3c2)cs1
-14.7% | Cc1cccc(N(Cc2cc(=O)[nH]c3ccccc23)C(=O)C(C)C)c1
7.8% | CCCCCOc1ccc(/C=C/C(=O)NCCc2nc3ccccc3[nH]2)cc1OC
5.3% | CC(=O)Oc1ccc2c(c1)c(C(C)=O)c(C)n2C
13.0% | Cc1nn(-c2ccccc2)c(C)c1/C=N/NC(=O)c1cc(-c2ccc(Cl)s2)[nH]n1
-18.2% | CC(=O)c1ccn(S(=O)(=O)c2ccc(Cl)cc2)c1
9.2% | Cc1ccc(OCC(O)CN2C(=O)NC(C)(C)C2=O)cc1 (configuration not stated)

3 compounds out of the list, sorted by number of heavy atoms, rising.
VDR inhibitor | SMILES
? | CC1CCC2(CC1)NC(=O)N(NC(=O)c1cc3ccccc3o1)C2=O (configuration not stated)
-7.5% | COc1ccc(NC(=O)C2CCN(S(=O)(=O)c3ccc(Br)s3)CC2)cc1OC
-1.6% | CC1CCN(C(=O)c2ccc(NC3=C(Cl)C(=O)N(Cc4ccccc4)C3=O)cc2)CC1

VDR inhibitor: entries above that show a hit.
VDR inhibitor | SMILES
79.4µM* | COC(=O)[C@@]1(Cc2ccc(OC)cc2)[C@@H]2C(=CC(=O)[C@H]2CC(=O)C(=O)N(C)C)CN1C(=O)c1ccccc1

(cont.)
VDR inhibitor | SMILES
8.7% | Cc1cccc(C(=O)OCC(=O)NN2C(=O)NC3(CCCCC3)C2=O)c1
-9.3% | N#CCC(CNc1ncc(C(F)(F)F)cc1Cl)OC(=O)c1ccc(Cl)cc1 (configuration not stated)
10.8% | COc1ccc(-n2nnc(-c3nc(-c4cccs4)no3)c2N)cc1OC
-7.7% | CC1(NC(=O)Cc2csc(-c3ccc(Cl)cc3)n2)CCS(=O)(=O)C1 (configuration not stated)
-4.8% | COc1ccc(Br)c(C(=O)OCc2cc(=O)oc3cc(C)ccc23)c1
-6.5% | O=C1CCC[C@@H]2[C@@H](Cc3ccccc3)[C@H](N3CCN(c4ccccc4)CC3)C[C@@H]3CCN1[C@@H]32
15.8µM* | CC(=O)OCC1=C(C(=O)O)N2C(=O)C(NC(=O)c3ccc(COc4c(C)cccc4Cl)o3)C2SC1 (configuration not stated)
0.2% | COc1ccc(-c2c3c(=O)n(C)c(=O)n(C)c3cn2Cc2ccccn2)cc1
21.2% | CC(=O)c1ccc(S(=O)(=O)Nc2ccc3c(c2)OCO3)cc1
0.9% | CC(=O)c1c(C(C)=O)c(C)n(-c2ccc(C(=O)O)cc2)c1C
6.1% | O=C(CN1C(=O)C2(SCC(=O)N2c2ccccc2)c2ccccc21)NCCc1ccccc1 (configuration not stated)
7.7% | CCC(=O)Nc1ccc2oc(-c3ccccc3Br)nc2c1
13.8% | COc1ccc(N(Cc2cccs2)C(=O)COc2ccc(C(C)C)cc2)cc1
-6.2% | CC1CCCCN1Cc1nc2c(c(=O)n(C)c(=O)n2C)n1Cc1c(F)cccc1Cl (configuration not stated)
-13.9% | COc1ccc(C2C(C#N)=C(N)Oc3cc(C)[nH]c(=O)c32)c(OC)c1OC (configuration not stated)
14.4% | Cc1ccc(NCC(=O)Nc2cccc(F)c2)cc1S(=O)(=O)N1CCCCCC1
10.4% | Fc1ccc(-n2c(CN3CCCCC3)n[nH]c2=S)cc1
-10.3% | N#Cc1cc(C(=O)c2ccccc2OCC(=O)Nc2ccccc2Cl)cn(C2CCCCC2)c1=O
7.2% | Cc1cccc(-n2c(SCc3nc(-c4ccccc4C)no3)nnc2-c2ccccc2)c1
17.5% | O=C(COC(=O)c1cccc(-n2cnnn2)c1)c1ccc(Br)cc1
-15.3% | CCN(C(=O)CN(C)Cc1cccc(Cl)c1Cl)c1c(N)n(Cc2ccccc2)c(=O)[nH]c1=O
-9.8% | CC(=O)c1ccc(O)c(CC=C(C)C)c1O
0.5% | CCCCNC(=O)CC1N=C2c3ccccc3N=C(SCC(=O)Nc3ccccc3OC)N2C1=O (configuration not stated)
6.1% | O=C(O)c1ccc(CSC2CCCCC2)cc1
3.5% | COc1ccc(NC(=O)C/C(C)=N/NC(=O)c2ccco2)c([N+](=O)[O-])c1
-6.7% | O=S1(=O)N=C(N2CCCC2)c2ccccc21
3.1% | COCCCNC(=O)CN(c1ccc(OC)cc1)S(=O)(=O)c1ccc(NC(C)=O)cc1
2.0% | Cc1ccc2nc(CCCc3nc4ccc(C)cc4[nH]3)[nH]c2c1
7.1% | C/C(Cl)=C/Cn1c(SCC(C)C)nc2c1c(=O)[nH]c(=O)n2C
-17.7% | COc1ccc(CCNC(=O)CCS(=O)(=O)c2ccc(Br)cc2)cc1OC
-14.4% | COc1cc(CN2CCC(n3nccc3NC(=O)C3CC3)CC2)cc(OC)c1
-13.0% | COc1ccc(S(=O)(=O)N2CCC(C(=O)NCCC(=O)NCc3ccccc3OC)CC2)cc1
-5.5% | Clc1ccc(-c2nc(-c3cc4cc(Cl)ccc4o3)cs2)cc1
-12.0% | O=C(O)C1=C[C@@H](C2CC2)C[C@@H](OCc2ccc(CO)cc2)O1
-23.4% | O=C(c1cccnc1)N1CCN(S(=O)(=O)c2ccc(F)cc2)CC1
6.9% | CCCCc1nn2c(=O)cc(COC(=O)c3ccccc3NC(=O)C(C)(C)C)nc2s1
-8.1% | Brc1[nH]nc2ccccc12
-2.8% | Cn1cccc1CNC(=O)Nc1ccc(Cl)cc1
0.4%&-20.3% | COc1ccc(C2CC(=O)Oc3cc(C)cc(C)c32)cc1 (configuration not stated)
21.2% | Fc1ccc(/C=N/Nc2cc(N3CCOCC3)ncn2)cc1
-12.0% | CCc1c(C(=O)NCc2ccccc2Cl)[nH]c(C)c1C(C)=O
4.3% | Cc1c(C)c2cc3c(c(C)c2oc1=O)OCN(CCc1ccccc1)C3
10.5% | CCCn1c(O)c(C=Nc2ccccc2)sc1=S
0.8% | CC(C(=O)NCCc1ccccc1)N1c2cccc3cccc(c23)S1(=O)=O (configuration not stated)
11.5% | Cc1ccccc1NC(=O)CN1C(=O)CCn2nc(-c3cccn3C)cc21
-9.4% | COc1cc(-c2noc(C)c2C#Cc2ccc(N)cc2)cc(OC)c1OC
-4.0%&-10.7%&-4.7% | Cn1cc(C2=C(c3ccc(Cl)cc3Cl)C(=O)NC2=O)c2ccccc21
10.5% | O=C1/C(=C/c2cccs2)SC(=S)N1c1ccccc1
-0.5% | O=C(CCNC(=O)c1ccccc1)OCN1C(=O)c2ccccc2C1=O
-1.8% | O=C(Nc1ccc2c(c1)OCO2)c1ccc(Cl)nc1
5.2% | CC1(C)CC2(CCCN(CC(O)(c3ccccc3)c3ccccc3)C2)CCO1 (configuration not stated)
? | Cc1nc2cnc(N3CCNCC3)nc2n(Cc2ccc(F)cc2)c1=O
3.9% | Cc1cc(C)c(NC(=O)CCCn2c(=O)oc3ccccc32)c(C)c1
0.2% | Cc1ccccc1S(=O)(=O)Nc1cccnc1
-10.6% | Cn1cc(C=O)c2ccccc21
7.9% | Cc1ccc(-c2ccc(CCC(=O)O)n2-c2cccc(C)c2C)cc1
-11.2% | Cc1[nH]c2ccccc2c1C(=O)C(C)OC(=O)c1ccc([N+](=O)[O-])o1 (configuration not stated)
8.4% | CC1CC[C@@]2(OC1)OC1CC3C4CC=C5CC(O)CC[C@@]5(C)C4CC[C@]3(C)C1C2C (some centres not stated)
-13.5% | COc1cc(OC)c(OC)cc1CNC(=O)c1cc(S(=O)(=O)N2CCOCC2)ccc1F
9.4% | COc1ccc(CN2CSC(=S)N(Cc3ccccc3)C2)cc1

Next section
VDR inhibitor | SMILES
-2.2% | COc1cccc(CNc2nc3ccc(C)cc3n3cnnc23)c1
-2.8% | CCOc1ccc2[nH]c(=O)c(C(c3nnnn3CCOC)N3CCOCC3)cc2c1 (configuration not stated)
-7.9% | CSCC[C@H](N)C(=O)NCC1CCC(C(=O)Nc2ccc3c(c2)OCO3)CC1 (some centres not stated)
18.0% | COc1ccc(NC2CCCN(C(=O)Cn3ccc(C)n3)C2)cc1OC (configuration not stated)
-8.6% | COc1cc2oc3ccccc3c2cc1N(CC(=O)N1CCCCC1)S(=O)(=O)c1ccc(C)cc1
6.1% | CSCCC1NC(=O)N(CC(=O)Nc2cccc(S(=O)(=O)N3CCCCCC3)c2)C1=O (configuration not stated)
-18.1% | COc1ccc(OCCCC(=O)Nc2cccc(C(C)=O)c2)cc1
7.2% | O=C(CSc1nnc(-c2ccccc2O)o1)NC1CCCCC1
1.7% | COc1ccccc1Oc1ncnc2sccc12
-6.6%&-3.1% | COc1ccc(CNC(=O)Nc2ccc([N+](=O)[O-])cc2)cc1
4.3% | CC(=O)COC(=O)CNC(=O)c1ccc(Br)cc1
12.5% | CCc1ccc2nc(N3CCC(C(=O)O)CC3)sc2c1
-12.4% | Cc1ccn2c(NC3CCCCC3)c(C(C)C)nc2c1
17.8% | COC(=O)c1ccc(C(=O)OCc2nc3cc4ccccc4cc3[nH]2)cc1
-15.4% | O=C(CNC(=O)c1ccccc1F)OCc1nc2ccc(Cl)cc2n1CCO
-14.3% | COc1ccccc1C(=O)COC(=O)/C(=C/c1ccccc1)NC(C)=O
7.0% | COc1ccc2[nH]cc(CCn3ccc(O)c(C/C=C/c4ccccc4)c3=O)c2c1
-13.3% | CC(C)Oc1ccc(S(=O)(=O)N2CCOCC2)cc1NC(=O)Cc1cccs1
8.5% | CCOC(=O)COc1ccc(S(=O)(=O)NCc2ccco2)cc1
1.6% | Cc1noc(C)c1CN(C(=S)NC1CC2CCC1C2)c1ccccc1 (configuration not stated)
-9.8% | COc1ccccc1CNC(=O)COc1cc(=O)n(C)c2ccccc12
-0.8% | COc1ccc(N2CS(=O)CC2=O)cc1 (configuration not stated)
-3.4% | COc1ccc(C2(c3ccc(OC)cc3)NC(=O)N(CC(=O)NCC(C)c3ccccc3)C2=O)cc1 (configuration not stated)
-17.2% | Cc1ccc(C)c(NC(=S)N(CCc2nc3cc(C)c(C)cc3[nH]2)Cc2cccnc2)c1
9.9% | CCc1ccc2nc(N3CCN(C(=O)C(C)(C)C)CC3)sc2c1
9.9% | Cc1cc(NC(=O)CSc2ccccc2)no1
-8.4% | Cc1c(Cl)cccc1NC(=O)Cn1nc(C)n2cccc2c1=O
-11.7% | O=C(CC1Sc2ccccc2NC1=O)NCc1ccc(Cl)cc1 (configuration not stated)
-15.2% | CCOC(=O)COc1coc(CN2CCN(c3ccc(F)cc3)CC2)cc1=O
-9.5% | CN1CCN(C(=S)NC(=O)c2ccco2)CC1
-5.4% | CCOc1cc(/C=C2\SC(=N)N(c3nccs3)C2=O)ccc1OCCN1CCOCC1
5.2% | Cc1ccc(C)c(N2CCN(CCCNC(=O)c3cnn(-c4ccccc4)c3C3CCN(C(=O)OC(C)(C)C)CC3)CC2)c1
0.5% | CC(C)c1ccc(CNc2nnnn2C)cc1
-6.3% | COc1ccc(NC(=O)c2ccc(S(=O)(=O)NCc3cccnc3)cc2)cc1
-26.8% | Cc1cc(NS(=O)(=O)c2ccc(NC(=O)CSc3nc4sc(C(=O)O)c(C)c4c(=O)[nH]3)cc2)no1

7 successive compounds from above, quoted:
VDR inhibitor | SMILES
-4.2% | CCN(CC)C(=O)c1sc(NC(=O)C2c3ccccc3Oc3ccccc32)c(C(=O)OC(C)C)c1C
16.0% | COCCCNC(=O)c1ccccc1NS(C)(=O)=O
-9.2% | CC[n+]1c(S(=O)(=O)[O-])ccc2ccc(C)cc21
-3.0% | Cc1ccccc1OCC(=O)Nc1ccc2oc(=O)ccc2c1
? | COc1ccc(-c2cc3c(=O)n(CC(=O)Nc4ccc(C(C)=O)cc4)ncn3n2)cc1
4.0% | O=C(Nc1cccc(C(F)(F)F)c1)c1ccc(N2CCNCC2)c([N+](=O)[O-])c1
-2.7% | CC(C)[C@H]1CN=C2N(CCNC(=O)CCC3CCCCC3)[C@H](Cc3ccc(O)cc3)CN21

A portion of the library, so the mix of outcomes need not match the whole.
